KCNQ2 inh = KCNQ2 channel blockers in CHO-K1 cells – cell-based, FluxOR thallium flux, B-score, primary screen (AID 2156); O88943; 20 min; active compounds read low; only compounds with negative scores are shown here; some inactives read as strong as hits; B-score at 10 µM; 1.1% of 310,000 active;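 active means fluorescence ratio B-score at most minus 3 library SDs, with starting brightness B-score within 2 library SDs, cut at about -5.5 in these data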
Target sequence (O88943 whole entry, looked up): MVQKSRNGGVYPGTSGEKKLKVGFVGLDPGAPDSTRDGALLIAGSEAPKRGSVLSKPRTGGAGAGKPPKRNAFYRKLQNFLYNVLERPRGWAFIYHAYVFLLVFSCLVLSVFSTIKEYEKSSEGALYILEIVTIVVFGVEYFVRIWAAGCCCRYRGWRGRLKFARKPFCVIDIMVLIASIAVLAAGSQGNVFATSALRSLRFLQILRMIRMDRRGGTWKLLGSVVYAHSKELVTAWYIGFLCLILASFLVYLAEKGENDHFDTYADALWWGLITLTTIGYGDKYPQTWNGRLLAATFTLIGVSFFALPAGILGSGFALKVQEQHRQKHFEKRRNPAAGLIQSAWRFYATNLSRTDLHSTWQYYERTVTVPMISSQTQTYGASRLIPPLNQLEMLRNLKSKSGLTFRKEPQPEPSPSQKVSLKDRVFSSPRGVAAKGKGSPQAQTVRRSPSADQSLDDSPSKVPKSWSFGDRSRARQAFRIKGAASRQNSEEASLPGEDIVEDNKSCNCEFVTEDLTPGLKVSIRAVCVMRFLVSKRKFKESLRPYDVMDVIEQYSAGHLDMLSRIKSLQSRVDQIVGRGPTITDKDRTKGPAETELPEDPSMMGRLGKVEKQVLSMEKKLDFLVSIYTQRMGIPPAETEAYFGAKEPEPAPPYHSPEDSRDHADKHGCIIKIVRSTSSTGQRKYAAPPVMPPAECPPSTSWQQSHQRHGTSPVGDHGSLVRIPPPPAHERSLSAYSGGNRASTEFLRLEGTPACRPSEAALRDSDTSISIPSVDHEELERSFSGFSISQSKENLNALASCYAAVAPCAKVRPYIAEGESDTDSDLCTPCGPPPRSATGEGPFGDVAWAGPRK
KCNQ2 inh baseline = further read-out of KCNQ2 inh, marked with its call; B-score; measured here: initial fluorescence intensity artifact check;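 brightness before thallium and not channel activity; 0 = typical well and far values either way flag optical interference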
* = called active by the depositor; i = inactive. This is a subset; the hit share may differ from the screen's.

Values run as follows: KCNQ2 inh, KCNQ2 inh baseline
[1] COC(=O)CSc1nnc(CNS(=O)(=O)c2ccc(C)cc2)n1C
  i, 1.03
[2] COCCNc1nc(-c2cc(-c3ccc(Cl)cc3)on2)cc(C(C)C)n1
  i, 1.34
[3] CCc1cc(C(=O)c2ccc(OC)cc2)c(NC(=O)CN2CCN(C)CC2)s1
  i, 0.31
[4] Cn1c(CCN2CCCCC2)nc2cc(NS(=O)(=O)c3ccc(Cl)cc3)ccc21
  i, -1.05
[5] O=C(N/N=C/c1cccc([N+](=O)[O-])c1)c1c[nH]c2ccccc12
  i, 0.73
[6] CCOc1ccc(CC(=O)N/N=C/c2sccc2C)cc1
  i, 1.38
[7] CN(CC(=O)N1CCN(c2ccccc2)CC1)C1CCCc2ccccc21 (stereo not given)
  i, -2.02
[8] CC1CN(CCc2ccccc2)c2nc3c(c(=O)n(CC(N)=O)c(=O)n3C)n2C1 (stereo not given)
  i, 2.48
[9] Cc1ccc(OCC(=O)NNC(=O)c2ccc(-n3cncn3)c([N+](=O)[O-])c2)cc1
  i, -0.1
[10] COc1ccc(C(=NN)c2ccc(OC)cc2)cc1
  i, -1.03
[11] C/C(=N\S(=O)(=O)c1ccc(C)cc1)NC(=S)Nc1ccc(C)cc1
  i, 0.27
[12] COc1ccccc1OCCOCCOc1c(C)cc(C)cc1Br
  i, 2.43
[13] O=C(CCC(=O)c1ccc(F)cc1)NCc1ccccc1C(F)(F)F
  i, -0.21
[14] CCCN1CCN(C(=O)Cn2ncc3c([nH]c4ccc(C)cc43)c2=O)CC1
  i, 0.01
[15] COc1cccc(C(c2nnnn2Cc2ccco2)N2CCN(Cc3ccccc3)CC2)c1OC (stereo not given)
  i, 0.82
[16] CC(C)Oc1ccc(NC(=O)CCC(=O)O)cc1
  i, 2.1
[17] COc1cc(C(=O)N2CCN(C(=O)c3cccc4ccccc34)CC2)cc(OC)c1OC
  i, 1.96
[18] COc1ccc(Cl)cc1C(=O)NCC(c1ccco1)N1CCCC1 (stereo not given)
  i, 0.67
[19] CNC(=O)C(=O)NCCN1CCN(S(=O)(=O)c2ccc3ccccc3c2)CC1
  i, 1.34
[20] CC1(c2ccc([N+](=O)[O-])cc2)NC(=O)NC1=O (stereo not given)
  i, 0.24

Entries of single compounds, quoted from the list. Order of values: KCNQ2 inh, KCNQ2 inh baseline
CNC(=O)C(=O)NCCN1CCN(S(=O)(=O)c2ccc3ccccc3c2)CC1 in the list: i, 1.34
CC1(c2ccc([N+](=O)[O-])cc2)NC(=O)NC1=O (stereo not given) in the list: i, 0.24
COc1ccccc1OCCOCCOc1c(C)cc(C)cc1Br in the list: i, 2.43
CCCN1CCN(C(=O)Cn2ncc3c([nH]c4ccc(C)cc43)c2=O)CC1 in the list: i, 0.01

More entries:
Values run as follows: KCNQ2 inh, KCNQ2 inh baseline
[21] N#Cc1ccc(OCC(=O)OCC(=O)NCCC2=CCCCC2)cc1
  i, -0.04
[22] C=CCn1cc(C(=O)NCCCOC)c(=O)c2cc(S(=O)(=O)N(CC)CC)ccc21
  i, -0.93
[23] COc1ccccc1N1CCN(CC(=O)c2ccc(F)cc2)CC1
  i, 0.89
[24] COc1ccccc1N1CCN(C(=O)c2cc3sccc3n2C)CC1
  i, 0.32
[25] COc1cc(/C=C/C(=O)N2CCN(c3ccccn3)CC2)cc(OC)c1OC
  i, -0.49
[26] CCOc1ccc(-c2nonc2NC(=O)c2ccco2)cc1OCC
  i, 1.35
[27] CC(C)c1ccc(NC(=O)NCc2ccc3c(c2)OCO3)cc1
  i, -1.19
[28] Cc1ccc(CC(=O)O/N=C(\N)Cc2ccc([N+](=O)[O-])cc2)cc1
  i, 0.96
[29] O=c1cc(O)n(-c2ccc(Cl)cc2)c(=S)[nH]1
  i, 0.88
[30] O=C(NCCN1C(=O)S/C(=C\c2cccc(Cl)c2Cl)C1=O)C1=COCCO1
  i, -0.83

Reprinted from the part before: 4 compounds, then new ones.
Values run as follows: KCNQ2 inh, KCNQ2 inh baseline
[27] CC(C)c1ccc(NC(=O)NCc2ccc3c(c2)OCO3)cc1
  i, -1.19
[28] Cc1ccc(CC(=O)O/N=C(\N)Cc2ccc([N+](=O)[O-])cc2)cc1
  i, 0.96
[29] O=c1cc(O)n(-c2ccc(Cl)cc2)c(=S)[nH]1
  i, 0.88
[30] O=C(NCCN1C(=O)S/C(=C\c2cccc(Cl)c2Cl)C1=O)C1=COCCO1
  i, -0.83
[31] CC(C)c1cn(C2OC(COC(=O)c3ccccc3)C(OC(=O)c3ccccc3)C2OC(=O)c2ccccc2)c(=O)[nH]c1=O (stereo not given)
  i, 0.01
[32] O=S(=O)(c1ccc(F)cc1)N1CCCN(Cc2c(F)cccc2F)CC1
  i, 1.76
[33] CC1(C)N=C(N)N=C(N)N1c1ccc(C(=O)O)cc1
  i, 0.17
[34] O=C1c2cccc([N+](=O)[O-])c2C(=O)N1c1cccnc1
  i, 0.18
[35] O=C(CCS(=O)(=O)c1ccccc1)Nc1nc2ccc(F)cc2s1
  i, 0.48
[36] CCc1cccc(N(CC(=O)NCc2ccc(F)cc2)C(=O)c2csnn2)c1
  i, 0.04
[37] COc1ccc(C(C)=O)cc1CSc1nnc(Nc2ccccc2C)s1
  i, -1.58
[38] CC(C)CCN1CCN(Cc2nc3ccccc3s2)CC1CCO (stereo not given)
  i, -0.93
[39] CCCC(CCC)C(=O)NCCN1CCOCC1
  i, -0.83
[40] Cc1cccc(C(C)C)c1NC(=O)C1CN(S(=O)(=O)c2ccccc2)CCN1S(=O)(=O)c1ccccc1 (stereo not given)
  i, -0.13
[41] COC(=O)C(C#N)c1nc2ccccc2nc1N1CCCC1 (stereo not given)
  i, 1.11
[42] CCOC(=O)C1(CC2CCCCO2)CCN(Cc2ccccc2-c2ccco2)CC1 (stereo not given)
  i, 1.36
[43] COc1cc(N=C2C(=O)N3CCCc4cccc2c43)cc(OC)c1
  i, -0.58
[44] O=C(COC(=O)c1cccc([N+](=O)[O-])c1)NC1CCCC1
  i, -0.72
[45] O=C(NCCN1CCOCC1)C1(C(F)(F)F)C/C(=C\Cc2ccccc2)CCCO1 (stereo not given)
  i, 2.93
[46] CCOC(=O)c1c(C)n(C)c2ccc(OC)c([N+](=O)[O-])c12
  i, 0.16
[47] COc1ccc(C)cc1NC(=O)Nc1ccncc1
  i, -0.35
[48] CNC(=O)COc1coc(CN2CCN(c3ccc(OC)cc3)CC2)cc1=O
  i, -0.98
[49] CCCOc1ccc(/C=N/NC(=O)C2CCCN2S(=O)(=O)c2ccc(Cl)cc2)cc1 (stereo not given)
  i, 0.32
[50] COc1ccc(Cl)cc1S(=O)(=O)N1CCN(CC(=O)C(C)(C)C)CC1
  i, -0.98
[51] COc1cc(NC(=O)COC(C)=O)c(C)cc1[N+](=O)[O-]
  i, 2.43
[52] CCC(=O)Nc1ccc(NC(=O)CSc2nnnn2Cc2ccccc2)cc1C
  i, 0.45
[53] COc1cccc(-c2nnc3n2N=C(c2cccc(Br)c2)CS3)c1
  i, -0.83
[54] COc1ccc(OCCSc2nc3ccccc3c(=O)[nH]2)cc1
  i, 0.23
[55] CCN(CC)CCNC(=O)c1cn(-c2ccccc2)nc1-c1cccs1
  i, 1.03
[56] O=C(N/N=C1/CCCc2ccccc21)C(c1ccccc1)c1ccccc1
  i, -1.55
[57] CCS(=O)(=O)NCCc1csc(C)n1
  i, 4.25
[58] COc1ccc(C(=O)Nc2ccc(S(=O)(=O)Nc3cc(C)nc(C)n3)cc2)cc1
  i, -0.1
[59] CC(CNS(=O)(=O)c1ccc2c(c1)CC(=O)N2C)c1ccccc1 (stereo not given)
  i, -0.4
[60] Cc1ccc(C(=O)NC2CCN(S(=O)(=O)c3ccccc3F)CC2)cc1
  i, 1.21
[61] O=c1cc2[nH]c3ccccc3c(=O)n2nc1-c1ccccc1
  i, 1.16
[62] COc1ccccc1OCCn1cc(/C=N/NC(N)=S)c2ccccc21
  i, 0.93
[63] CCC(C)NC(=O)Nc1ccccc1C (stereo not given)
  i, 0.02
[64] C[N+]1(CCC(=O)c2ccccc2)CCCCC1
  i, 0.1
[65] O=C(O)COc1ccccc1/C=N/NC(=O)CNC(=O)c1ccco1
  i, 2.48
[66] COc1cc(C(C(=O)Nc2c(C)cccc2C)N(C)C(=O)c2ccc(-n3cnnn3)cc2)ccc1O (stereo not given)
  i, 0.8
[67] COc1ccc2c(CC(=O)Nc3nc(C)cs3)coc2c1
  i, -0.15
[68] Cc1ccc(C(=O)NC2CCCC2)cc1S(=O)(=O)N1CCCCC1
  i, -0.46
[69] CCOC1C(=O)NC(=O)N1Cc1ccccc1 (stereo not given)
  i, -1.1
[70] O=C(O)CCN=C1CCc2ccccc2N1
  i, -1.67
[71] COc1ccc(S(=O)(=O)N2Cc3ccccc3CC2C(=O)Nc2ccc3c(c2)OCO3)cc1 (stereo not given)
  i, 0.28
[72] CCOC(=O)c1ccccc1NC(=O)C(C)Oc1ccccc1 (stereo not given)
  i, 1.86
[73] CCc1ccccc1NS(=O)(=O)c1cccc2nsnc12
  i, -2.28
[74] NC(=O)C1CCN(CC(=O)N2N=CCC2c2ccccc2)CC1 (stereo not given)
  i, 0.27
[75] COc1ccc(-n2nc(C(=O)N3CCC(N4CCCCC4)CC3)c3c4ccccc4n(C)c3c2=O)cc1
  i, 0.02
[76] CNC(=O)c1[nH]cnc1C(=O)N[C@@H](CCCCNC(=O)OC(C)(C)C)C(=O)OC(C)(C)C
  i, 2.08
[77] COc1ccc(S(=O)(=O)Nc2c(O)c3ccccc3oc2=O)cc1
  i, 0.02
[78] Cc1cccc(OCC(=O)O/N=C(\N)Cc2ccc([N+](=O)[O-])cc2)c1
  i, 1.96
[79] COc1ccc(/C=N/NC(=O)CN2CCCC2)cc1
  i, 0.47
[80] CC(C)Cn1c(=O)c(-[n+]2ccccc2)c([O-])c2ccccc21
  i, -0.16

Continued.
Values run as follows: KCNQ2 inh, KCNQ2 inh baseline
[81] CCCCCn1c(CNC(=O)c2cccs2)nc2ccccc21
  i, 1.01
[82] Cc1ccc(C)c(NC(=O)CCNS(=O)(=O)c2ccc3[nH]c(=O)oc3c2)c1
  i, 0.01
[83] O=C(NOC(=O)c1c(F)cccc1Cl)c1ccc(Cl)c(Cl)c1
  i, 2.16
[84] O=C(O)c1cc(Cl)c(Cl)cc1C(=O)NCc1ccco1
  i, 0.04
[85] Cc1ccc(NS(=O)(=O)c2ccc(NC(=O)c3ccccc3C(=O)O)cc2)cc1C
  i, 0.41
[86] CCCOc1ccc(/C=N/NC(=O)C(=O)Nc2ccccn2)cc1
  i, 0.13
[87] CC(OC(=O)Cc1ccccc1[N+](=O)[O-])C(=O)Nc1ccc(Cl)cn1 (stereo not given)
  i, -0.93
[88] Cc1nc(NNC(=O)c2ccc(Cl)cc2Cl)cc(-c2ccccc2)n1
  i, 0.15
[89] O=C(O)c1ccc(N/N=C/c2ccc3nccnc3c2)cc1
  i, -0.03
[90] CN(C)c1nc(NCc2ccccc2)nc(N/N=C/c2ccc(Br)cc2)n1
  i, -1.74
[91] COc1ccc(-c2cc(C(=O)Nc3ccc4c(c3)OCO4)no2)cc1
  i, -0.33
[92] COc1nnc(-c2ccc(C)c(S(N)(=O)=O)c2)c2ccccc12
  i, 0.56
[93] CCN=C1S/C(=C\c2cc(Cl)c(OC)c(OC)c2)C(=O)N1CC
  i, -0.21
[94] O=Cc1cc2ccccc2nc1SCc1ccc(Cl)c(Cl)c1
  i, 2.18
[95] O=C(O)c1ccc(-n2cccc2/C=C2/SC(=O)N(CC(=O)N3CCCC3)C2=O)cc1
  i, -0.9
[96] O=C(NCc1cccnc1)C(=O)NCC(c1ccco1)N1CCN(c2ccccc2F)CC1 (stereo not given)
  i, -0.48
[97] CCOC(=O)c1[nH]c2ccccc2c1NC(C)=O
  i, -0.49
[98] CCOC(=O)c1c(C)[nH]c(C(=O)OCC(=O)Nc2sc(C(=O)N(C)C)c(C)c2C(=O)OCC)c1C
  i, 1.78
[99] COc1ccccc1N1CCN(C(=O)c2cc(-c3cccs3)on2)CC1
  i, 0.81
[100] COc1cc(/C=C/c2ccc(O)cc2)cc(OC)c1
  i, 0.84
[101] O=C1c2ccccc2C(=O)N1CCCc1nc(-c2ccc(Cl)cc2)no1
  i, -0.2
[102] O=C(Nc1ccc(Cl)cc1)N1CCCN(Cc2ccccc2F)C1
  i, -1.35
[103] O=C(NCCS(=O)(=O)NC1CCCC1)c1ccccc1
  i, 0.05
[104] Cn1c(SCC(=O)CC(=O)Nc2ccccc2)nnc1-c1ccc(O)cc1
  i, 1.63
[105] CCCSc1nc(O)c(C(c2ccc(OC)c(O)c2)c2c(O)nc(SCCC)n(C)c2=O)c(=O)n1C
  i, 1.12
[106] S=C(NCc1ccc(Cl)cc1)Nc1ccccc1
  i, 2.12
[107] COc1ccc(/C=N/NC(=O)c2ccc(F)cc2)cc1CN1CCc2cc(OC)c(OC)cc2C1C (stereo not given)
  i, -1.54
[108] CCOc1ccc(C(=O)CCN2CCOCC2)cc1
  i, 0.83
[109] COc1ccccc1CNC(=O)[C@@H]1CCCN1S(=O)(=O)c1ccccc1F
  i, 1.35
[110] O=C(N/N=C/c1cc(Br)ccc1O)c1cccc(N2CCCC2=O)c1
  i, 1.71
[111] Cc1ccc(-n2cccc2/C=C2\C(=N)N3N=C(C(C)C)SC3=NC2=O)cc1
  i, -0.79
[112] Cc1ccc(C(=O)NN2CCOCC2)cc1
  i, 2.61
[113] Cc1nn(-c2ccccc2)c2c1C(c1cccs1)C(C#N)=C(N)O2 (stereo not given)
  i, 1.59
[114] O=C(COC(=O)c1ccccn1)Nc1nc(-c2ccccc2)cs1
  i, -1.75
[115] COc1ccc(NC(=O)N2CCC(O)(c3cccnc3)CC2)c(OC)c1
  i, 2.54
[116] CCN1CCN(Cc2ccc(OC)c(OCc3ccccc3)c2)CC1
  i, 0.3
[117] O=C(Nc1nnc(Cc2ccccc2)s1)c1ccccc1
  i, -0.37
[118] O=C(NCC(=O)N(CC1CCCO1)C(C(=O)NC1CCCCC1)c1ccccc1)c1ccco1 (stereo not given)
  i, -0.06
[119] Cc1ccc(C(=O)N2CCN(C)CC2)cc1S(=O)(=O)N1CCCCC1
  i, -0.42
[120] Cc1cc(N)n(-c2ccc(Oc3ccccc3)c(S(=O)(=O)O)c2)n1
  i, -0.15
[121] CCOC(=O)/C(C)=C1\NC(C)(C)Cc2ccccc21
  i, 2.34

Compound activity as filed in PubChem BioAssay.
